Screens from PubChem BioAssay.
YopH PTP inh = YopH tyrosine phosphatase inhibitors, primary screen, biochemical, fluorescence Ex485/Em525. actives 0.16% (n = 140,000). inhibition, %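 (about 10 µM by stock and volumes)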. AID 898, 2007;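 active = inhibition of 50% or more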;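 also: controls were vehicle for no effect and minimum signal wells for full effect; inactives centre near -20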
Mtb betalactam = beta-lactam sensitization of Mtb H37Rv, H37Rv. actives 0.27% (n = 330,000). M. tuberculosis H37Rv growth with meropenem, percent inhibition; hits of this screen are not shown here. AID 434955, 2010. inhibition, % at 25 µM;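 active = about 74% or more and at least 40 points above the plate without the antibiotic, then above 30% in a dose series; inconclusive = first-round hits that could not be retested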;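 also: growth measured after seven days incubation then overnight dye step; 0% = bacteria only wells and 100% = bacteria with antibiotic; twin plates without the antibiotic show which effects depend on it; some results filed as inactive read as strong as hits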
Arbovirus inh = antivirals against arbovirus infection, primary screen, cell-based, full library, 10K replicate subset; arbovirus infection cell-based antiviral screen; inhibition, % at 10 µM; actives 0.37% (n = 200,000);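 active = inhibition from about 30%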;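 also: bluetongue infection of BSR cells; cell survival read as ATP light after 72 h; 0% = infected wells without compound and 100% = uninfected wells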
Mtb H37Rv = M. tuberculosis H37Rv growth inhibitors, H37Rv strain (AID 1626); M. tuberculosis H37Rv growth inhibition; higher % means a stronger effect; inhibition, % at 10 µM, or IC50 in µM where a hit was titrated; actives 0.95% (n = 220,000);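 active = confirmed in a dose series; inconclusive = inhibition above 80% but not taken into the dose series; inactive = below 80% or under 30% at every dose of the series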;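 also: bacteria incubated seven days before Alamar blue readout; 0% = bacteria only wells and 100% = bacteria with antibiotic wells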
RecA splice inh = Mtb RecA intein splicing inhibitors, primary screen, biochemical, fluorescence, HTS; cell-free RecA intein splicing; inhibition, %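 (about 9 µM by stock and volumes)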; actives 0.75% (n = 290,000); AID 2221, 2009; in the data active = inhibition above about 30%; inconclusive = no clear call, values can overlap the other calls;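 also: 0% = vehicle wells and 100% = reference inhibitor control wells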
Target sequence (P9WHJ3 whole entry, looked up, canonical isoform): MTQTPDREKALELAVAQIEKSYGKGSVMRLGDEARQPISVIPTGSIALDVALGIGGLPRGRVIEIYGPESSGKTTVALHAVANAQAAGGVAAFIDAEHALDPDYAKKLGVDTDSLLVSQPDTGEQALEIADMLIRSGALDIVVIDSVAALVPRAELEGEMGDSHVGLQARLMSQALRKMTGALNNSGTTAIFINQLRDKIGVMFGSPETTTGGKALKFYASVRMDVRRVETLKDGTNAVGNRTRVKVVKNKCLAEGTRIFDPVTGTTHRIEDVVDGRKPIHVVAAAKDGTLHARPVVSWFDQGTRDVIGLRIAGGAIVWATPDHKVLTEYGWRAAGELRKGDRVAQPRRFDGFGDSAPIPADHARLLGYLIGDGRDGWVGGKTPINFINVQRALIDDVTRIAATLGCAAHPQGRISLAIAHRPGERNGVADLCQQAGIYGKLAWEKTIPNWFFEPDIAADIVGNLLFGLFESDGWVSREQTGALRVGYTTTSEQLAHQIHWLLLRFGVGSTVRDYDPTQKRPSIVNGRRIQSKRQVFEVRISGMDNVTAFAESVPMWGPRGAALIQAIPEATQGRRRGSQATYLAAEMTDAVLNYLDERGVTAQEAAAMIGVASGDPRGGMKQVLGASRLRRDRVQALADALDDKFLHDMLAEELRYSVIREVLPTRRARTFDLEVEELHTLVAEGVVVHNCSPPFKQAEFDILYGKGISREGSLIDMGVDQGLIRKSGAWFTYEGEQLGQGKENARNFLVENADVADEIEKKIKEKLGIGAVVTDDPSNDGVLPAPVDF
* hit, by the source's call; ? = inconclusive; · = no result given. Not all compounds are listed (hit frequency here may not be typical).

(1) CCN(CC)C(=O)c1ccc(NC(=O)c2cccc(F)c2)cc1
(2) CCCCN1C(=O)/C(=C\c2ccco2)C(=O)N(CCc2ccccc2)C1=O
(3) CCOC(=O)c1cnc2c(CC)cccc2c1NCCCN1CCOCC1
(4) Cc1ccc(C(=O)NC2CCC(C)CC2)o1 (centres undefined)
(5) Nc1ccc(Cl)c[n+]1Cc1cccc2cccnc12

screen / no.	1	2	3	4	5
YopH PTP inh	-7.4	11.1	·	·	·
Mtb betalactam	9.4	-6.2	0.6	-0.4	-4.2
Arbovirus inh	1.4	9.3	·	·	·
Mtb H37Rv	-9.7%	-1.0%	·	·	-7.9%
RecA splice inh	-2.2	-2.3	-0.8	-1.5	-12.3

(6) CCOC(=O)c1cc(-c2ccccc2)sc1NC(=S)Nc1cccc(C)n1
(7) O=C(CNC(=O)c1ccco1)OCC(=O)c1cccc2ccccc12
(8) C=CCOC(=O)C1=C[C@@H](c2coc3ccccc3c2=O)C[C@@H](OCCCCO)O1
(9) Cc1ccc(N2C(=O)CSC2c2ccc3c(c2)OCO3)cc1 (centres undefined)
(10) COc1ccccc1NC(=O)CSc1nnc(CCNC(=O)c2ccc(C)cc2)n1C

screen / no.	6	7	8	9	10
YopH PTP inh	-18.2	1.1	·	-25.2	·
Mtb betalactam	-16.6	-4.6	-4.7	8.8	7.5
Arbovirus inh	-1.4	-6.4	·	2.5	2.0
Mtb H37Rv	0.0%	0.2%	-1.8%	·	0.3%
RecA splice inh	-6.0	3.7	-3.0	-0.6	-2.7

(11) O=C(O)c1cccc(C(=O)O)n1
(12) O=C(Cc1cccc(C(F)(F)F)c1)NCc1cccnc1
(13) Cc1ccc2nc(N3C(=O)C(O)=C(C(=O)c4ccc(C)o4)C3c3cccc(O)c3)sc2c1 (centres undefined)
(14) Cc1cccc(-c2cc3nc(C)cc(NCCCn4ccnc4)n3n2)c1
(15) CCOC(=O)c1cnc(-c2ccccc2)nc1Oc1ccc(OC)cc1

screen / no.	11	12	13	14	15
YopH PTP inh	0.5	·	·	-7.5	·
Mtb betalactam	·	?	-18.5	-8.3	5.5
Arbovirus inh	5.5	·	76.4*	-10.1	0.6
Mtb H37Rv	3.2%	·	-5.1%	5.0%	13.1%
RecA splice inh	10.7	0.4	-7.1	-1.3	3.1

(16) CCn1c(SCC(=O)N2CCN(c3ccccc3F)CC2)nnc1-c1ccoc1C
(17) O=[N+]([O-])c1ccc(OCc2n[nH]c(=S)n2-c2ccccc2)cc1
(18) COc1ccc(O)c(/C=N/c2sc(C)c(C)c2C#N)c1
(19) CC(=O)Nc1nc(C)cs1
(20) CCOC(=O)C1CCCN(C(=O)c2ccc3oc(Cc4ccccc4)nc3c2)C1 (centres undefined)

screen / no.	16	17	18	19	20
YopH PTP inh	-30.6	·	-16.3	·	·
Mtb betalactam	-3.5	4.1	-0.4	-8.4	4.1
Arbovirus inh	-11.9	·	-9.6	1.1	·
Mtb H37Rv	8.1%	·	-4.7%	0.9%	·
RecA splice inh	0.3	2.3	-3.9	1.8	1.3

(21) COc1cccc(C(=O)C2CN(C)CC2c2ccc(Cl)cc2)c1 (centres undefined)
(22) Cc1nn(-c2ncc(C(F)(F)F)cc2Cl)c(=O)n1-c1ccccc1F
(23) CCOC(=O)C1=C(C)NC(=O)NC1c1ccsc1 (centres undefined)
(24) CCCC(C)C(=O)Nc1ccc(F)c(Cl)c1 (centres undefined)
(25) CN1CCN(CCC(=O)Nc2cccc(F)c2)CC1

screen / no.	21	22	23	24	25
YopH PTP inh	·	·	-20.2	·	-31.7
Mtb betalactam	10.9	1.2	-2.0	-1.8	0.4
Arbovirus inh	-2.6	8.3	0.6	-0.1	-2.3
Mtb H37Rv	12.6%	-0.1%	-4.7%	-0.5%	-4.9%
RecA splice inh	3.5	-0.3	3.3	1.3	2.0

Profiles, quoted from the list.
Entry for Cc1cccc(-c2cc3nc(C)cc(NCCCn4ccnc4)n3n2)c1 → YopH PTP inh = -7.5; Mtb betalactam = -8.3; Arbovirus inh = -10.1; Mtb H37Rv = 5.0%; RecA splice inh = -1.3
Entry for O=[N+]([O-])c1ccc(OCc2n[nH]c(=S)n2-c2ccccc2)cc1 → YopH PTP inh = ·; Mtb betalactam = 4.1; Arbovirus inh = ·; Mtb H37Rv = ·; RecA splice inh = 2.3

The results go on:
(26) O=C(C(Cl)Cl)N1CCN(Cc2ccccc2)CC1
(27) CCNc1nc(Oc2c(Cl)cccc2Cl)cc(C(F)(F)F)n1
(28) CCCCCC(=O)NC(=S)NNC(=O)c1ccc([N+](=O)[O-])cc1
(29) O=C(Nc1ccc2[nH]c(=S)sc2c1)Nc1ccccc1F
(30) CCc1noc(C)c1C(=O)N1CCC(CCC(=O)Nc2cccc(C)c2)CC1

screen / no.	26	27	28	29	30
YopH PTP inh	11.8	-29.8	-32.4	·	·
Mtb betalactam	84.8	4.3	29.8	3.7	10.2
Arbovirus inh	-0.1	-7.3	-18.0	·	·
Mtb H37Rv	·	2.3%	63.9%	10.7%	·
RecA splice inh	0.9	-0.2	-4.7	1.5	-0.4

(31) CCc1ccnc(NS(=O)(=O)c2ccc3c(c2)OCCO3)c1
(32) COc1ccc(NC(=O)CCCn2c(=O)c3sccc3n(Cc3ccc(C)cc3)c2=O)cc1
(33) CNS(=O)(=O)c1ccc2nc(NC(=O)/C=C/c3ccco3)sc2c1
(34) Cc1cc(-c2n[nH]c(=S)n2CC(C)C)cs1
(35) CCCS(=O)(=O)N1CCC(C(=O)NC2CCCCC2C)CC1 (centres undefined)

screen / no.	31	32	33	34	35
YopH PTP inh	·	-12.1	·	-27.0	-36.2
Mtb betalactam	11.3	-3.1	2.5	1.1	-15.3
Arbovirus inh	·	-7.5	4.5	-11.2	-4.2
Mtb H37Rv	-3.4%	-6.0%	-7.0%	-2.8%	-1.7%
RecA splice inh	3.5	0.3	·	-1.5	1.1

(36) COc1cc(C(=O)CCN2CCC(c3ccccc3)C2)cc(OC)c1OC (centres undefined)
(37) COc1cccc(CNC(=O)c2cccnc2Sc2ccc(C)cc2C)c1
(38) COc1cccc(-n2cnc3scc(-c4cccs4)c3c2=O)c1
(39) CC(=O)c1ccc(NC(=O)c2sc3nc(N4CCOCC4)c4c(c3c2N)CCCC4)cc1
(40) O=C(CSc1nnc(-c2ccco2)n1Cc1ccco1)N1CCOCC1

screen / no.	36	37	38	39	40
YopH PTP inh	-26.9	·	34.2	·	-23.1
Mtb betalactam	1.1	5.4	-8.6	5.9	-10.8
Arbovirus inh	-3.8	·	-6.8	·	-1.0
Mtb H37Rv	-5.7%	·	14.5%	·	-2.0%
RecA splice inh	2.3	2.6	6.1	0.3	0.0

(41) CC(C)Cc1nnc(NC(=O)CSc2nc(N)cc(=O)[nH]2)s1
(42) CC1(C)Cc2nc(NCCN3CCOCC3)c(C#N)cc2CO1
(43) Nc1nc(=S)[nH]c2c1C1(CCCCC1)Cc1ccccc1-2
(44) CC(C)C(=O)N1C2CCC1CC(O)(c1ccc(F)cc1)C2 (centres undefined)
(45) C=C(C)CNC(=S)N/N=C1\CCCCc2ccccc21

screen / no.	41	42	43	44	45
YopH PTP inh	-30.8	-48.1	-28.8	-4.4	-41.9
Mtb betalactam	-11.7	-4.3	-5.6	0.7	92.9
Arbovirus inh	2.9	1.0	-13.6	9.1	24.4
Mtb H37Rv	-5.7%	-14.7%	3.6%	-6.0%	10.4%
RecA splice inh	0.2	0.5	0.1	-1.8	2.9

(46) CCc1nnc(NC(=O)CSc2nnc(-c3ccco3)n2CC)s1
(47) CCN(CC)C(=O)c1sc(NC(=O)c2c(OC)cccc2OC)c(C#N)c1C
(48) COC(=O)C(=C/C=C/c1cccnc1)C(=O)OC
(49) O=C(Cn1cc(C(F)(F)F)ccc1=O)N/N=C/c1ccc(O)cc1
(50) O=C(Cc1ccccc1)Nc1ccc2c(c1)CCC2

screen / no.	46	47	48	49	50
YopH PTP inh	-32.2	·	·	·	·
Mtb betalactam	?	-2.0	0.8	6.1	4.7
Arbovirus inh	9.7	0.0	1.0	·	-3.4
Mtb H37Rv	-7.5%	-0.8%	3.2%	-4.7%	3.3%
RecA splice inh	-0.8	-1.2	-0.6	-0.3	0.9

(51) CCC(C)[C@H](NC(=O)N1CC(=O)Nc2ccccc21)C(=O)N[C@@H](C(=O)O)c1ccccc1 (some centres undefined)
(52) O=C(Cc1nc(-c2cnccn2)no1)NNC(=O)Nc1ccccc1
(53) CC1Cc2ccccc2N1C(=O)CNc1cccc(S(=O)(=O)N2CCCC2)c1 (centres undefined)
(54) Cc1ccc(NC(=O)Cn2nc(C)cc2C)cc1
(55) CCOC(=O)C1=NNC(C(=O)c2ccc(C)cc2)C1c1ccc(C)cc1 (centres undefined)

screen / no.	51	52	53	54	55
YopH PTP inh	·	·	·	-46.8	-23.4
Mtb betalactam	-1.1	-7.3	-3.9	-1.9	8.8
Arbovirus inh	·	·	0.3	8.8	-0.9
Mtb H37Rv	·	-7.5%	0.1%	-4.1%	9.6%
RecA splice inh	-1.1	0.9	9.0	-1.9	6.6

(56) Cc1cccc(C)c1NC(=O)CN1C(=O)N(C)Cc2ccccc21
(57) Cn1c(-c2ccco2)nc2cc3ccccc3cc21
(58) COC(=O)C(CCSC)NC(=O)CNS(=O)(=O)c1ccc(F)cc1 (centres undefined)
(59) CC(C)(C)c1cc(C(=O)N2CCN(c3ncccn3)CC2)ccn1
(60) CC(C)(C)n1nnnc1C(c1ccc(F)cc1)N1CCC(C(N)=O)CC1 (centres undefined)

screen / no.	56	57	58	59	60
YopH PTP inh	·	-61.2	2.5	-23.1	·
Mtb betalactam	2.1	6.6	-1.6	1.6	-4.5
Arbovirus inh	0.8	-21.7	6.1	8.4	7.8
Mtb H37Rv	-2.3%	0.9%	-7.2%	-9.1%	1.5%
RecA splice inh	4.5	2.7	2.2	3.9	-4.2

(61) Cc1cccc(NC(=S)NC(=O)/C=C/c2ccccc2)n1
(62) Cc1cc(CNC(=O)COc2ccc(F)cc2)c2ccccc2n1
(63) CC1(C)CC(=O)C2=C(C1)Nc1ccccc1N1C(=O)c3ccccc3C21 (centres undefined)
(64) COCCn1c(SC(C)C(=O)NCC2CCCO2)nc2sc3c(c2c1=O)CCC3 (centres undefined)
(65) COc1ccc(CN2CCN(CCc3ccccc3)C(CCO)C2)c(Cl)c1OC (centres undefined)

screen / no.	61	62	63	64	65
YopH PTP inh	·	·	13.5	·	·
Mtb betalactam	5.0	1.9	4.0	-9.8	-1.3
Arbovirus inh	-3.2	4.0	11.0	·	·
Mtb H37Rv	8.5%	-2.2%	5.0%	·	·
RecA splice inh	-2.3	-0.4	-5.4	1.4	-0.2

(66) CCCOc1ccc(N2C(=O)C3C4C=CC(CC4)C3C2=O)cc1 (centres undefined)
(67) O=C(c1ccc(CS(=O)(=O)c2ccc(Br)cc2)o1)N1CCCC1
(68) CC(=O)NS(=O)(=O)c1ccc(NC(=S)NC(=O)Cc2ccccc2)cc1
(69) COc1ccccc1C(=O)N1CC(=O)Nc2ccc(F)cc2C1c1ccccc1 (centres undefined)
(70) CCCNC(=O)CN(c1cccc(F)c1)S(C)(=O)=O

screen / no.	66	67	68	69	70
YopH PTP inh	·	·	·	·	1.2
Mtb betalactam	-11.6	-2.5	-3.2	0.6	-2.5
Arbovirus inh	·	8.9	8.8	·	9.7
Mtb H37Rv	·	7.5%	-2.8%	·	3.4%
RecA splice inh	0.5	-0.7	-4.9	-2.4	2.9

(71) O=C(O)c1cccc(NC(=S)NCc2ccccc2)c1
(72) COC(=O)c1cc(-c2ccc(Br)cc2)n[nH]1
(73) Cc1ccc(NC(=O)Nc2nnc(Cc3ccc([N+](=O)[O-])cc3)s2)cc1
(74) CNC(=O)/C(C#N)=C/c1ccc(-c2ccccc2[N+](=O)[O-])o1
(75) NC(=O)C1CCN(C(=O)CNC(=O)c2ccccc2)CC1
(76) Cc1ccc(C(=O)NC(=S)NNS(=O)(=O)c2ccc(C)cc2)cc1
(77) CSCCC(NC(=O)c1ccc(Cl)c([N+](=O)[O-])c1)C(=O)N1CCN(C/C=C/c2ccccc2)CC1 (centres undefined)

screen / no.	71	72	73	74	75	76	77
YopH PTP inh	·	-9.7	-25.0	·	·	-9.5	·
Mtb betalactam	-10.0	3.0	3.4	1.1	15.0	-5.9	16.1
Arbovirus inh	-2.7	-6.8	-7.5	-10.2	7.5	3.8	·
Mtb H37Rv	-7.5%	-15.4%	-1.6%	-2.1%	2.7%	2.9%	·
RecA splice inh	2.9	0.0	-0.1	5.8	·	41.5*	8.2

Among those listed so far, these contain a tert-butyl group:
(59) CC(C)(C)c1cc(C(=O)N2CCN(c3ncccn3)CC2)ccn1
(60) CC(C)(C)n1nnnc1C(c1ccc(F)cc1)N1CCC(C(N)=O)CC1 (centres undefined)

screen / no.	59	60
YopH PTP inh	-23.1	·
Mtb betalactam	1.6	-4.5
Arbovirus inh	8.4	7.8
Mtb H37Rv	-9.1%	1.5%
RecA splice inh	3.9	-4.2
